# Kir21 inh: blocks the mouse Kir2.1 inward-rectifier potassium channel; B-score at 10 µM; HEK293-Kir2.1, FluxOR thallium flux fluorescence; hits give low values; 310,000 compounds, 0.85% hits; AID 1672;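 active means fluorescence ratio B-score at or below minus 3 SD of library scores, with starting-brightness B-score within 2 SD, cut at about -4.2 in these data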;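 further: channel flux triggered by added potassium and thallium sulfate stimulus; B-score of peak minus minimum fluorescence over baseline after thallium stimulus; more negative B-score means stronger Kir2.1 block with less thallium influx; some compounds called inactive have numbers as strong as hits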
# Target sequence (P35561 whole entry, looked up): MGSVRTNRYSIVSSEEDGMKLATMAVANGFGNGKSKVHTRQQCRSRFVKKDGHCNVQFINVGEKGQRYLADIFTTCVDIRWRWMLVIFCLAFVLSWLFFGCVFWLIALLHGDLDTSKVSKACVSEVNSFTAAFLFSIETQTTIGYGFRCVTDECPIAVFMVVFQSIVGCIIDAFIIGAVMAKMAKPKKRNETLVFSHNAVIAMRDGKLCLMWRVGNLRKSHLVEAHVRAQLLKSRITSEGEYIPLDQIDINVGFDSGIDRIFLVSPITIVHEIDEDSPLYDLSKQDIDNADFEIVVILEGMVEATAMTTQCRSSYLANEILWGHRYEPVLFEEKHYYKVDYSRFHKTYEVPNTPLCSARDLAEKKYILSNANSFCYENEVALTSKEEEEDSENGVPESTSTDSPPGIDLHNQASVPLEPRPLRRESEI
# * marks the source's active call; other numbers are inactive results. Not all compounds are listed, and most or all hits are left out here.
# A first look (four entries):
Kir21 inh	compound
-0.82	On1c(-c2ccccc2Cl)nc2ncccc21
-1.6	CCC(=O)NC(c1ccc(N(C)C)cc1)c1c(O)ccc2ccccc12 (stereo unspecified)
-1	O=C(Oc1ccc2ccc(O)cc2c1)c1ccccc1Cl
0.87	Nc1c(C(=O)NCc2ccc(F)cc2)c2nc3ccccc3nc2n1CCCN1CCOCC1

# The list itself, from the first entry:
Kir21 inh	compound
-0.82	On1c(-c2ccccc2Cl)nc2ncccc21
-1.6	CCC(=O)NC(c1ccc(N(C)C)cc1)c1c(O)ccc2ccccc12 (stereo unspecified)
-1	O=C(Oc1ccc2ccc(O)cc2c1)c1ccccc1Cl
0.87	Nc1c(C(=O)NCc2ccc(F)cc2)c2nc3ccccc3nc2n1CCCN1CCOCC1
-0.37	O=C(Nc1cc(Cl)ccc1Cl)c1ccco1
3.1	CCOC(=O)C1CCN(C(=O)C2CC(=O)N(c3ccc4c(c3)OCCO4)C2)CC1 (stereo unspecified)
0.56	Cc1ccc(Nc2nnc(SCC(=O)NCCN3C(=O)CSC3=O)s2)cc1
-1.2	CC1(c2nnc(Cc3ccccc3)o2)CC(c2ccccc2Br)=NO1 (stereo unspecified)
-3.4	COC(=O)c1ccccc1OCCOCCOc1cccc2cccnc12
1.4	CC(=O)N(C1=C(O)c2ccccc2C(=O)C1=O)C1CCCCC1
0.91	Cc1cccc(N(CC(=O)NCCSCc2ccccc2)S(C)(=O)=O)c1C
1.2	Cc1c(N=C2SCC(=O)N2/N=C/c2ccccc2Cl)c(=O)n(-c2ccccc2)n1C
0.34	CC(=O)NC1=NN(C(C)=O)C2(CCCCC2)S1
0.3	Nc1nonc1-n1nnc(C(=O)N/N=C/c2ccco2)c1CSc1ccccc1
-1.4	COc1ccccc1-c1nnc2sc(COc3ccc(Cl)cc3Cl)nn12
-0.74	CCc1cccc(CC)c1NC(=O)CSc1nc2ccc(N3C(=O)C4C5C=CC(C5)C4C3=O)cc2s1 (stereo unspecified)
-1	N#Cc1nc(Cc2ccccc2)oc1NCc1ccccc1
-2.6	Cc1nnc(SC(C)C(=O)NC2CCCc3ccccc32)n1-c1ccccc1 (stereo unspecified)
0.17	COc1ccc2cc(CCC(C)=O)ccc2c1
0.27	O=C(NCCc1ccccc1)[C@@H]1CC=C[C@@H]2CCN(Cc3ccc(Cl)c(Cl)c3)C(=O)[C@@H]21
0.98	COc1ccc(CNC(=O)c2ccccc2NC(=O)C2=CSCCO2)c(OC)c1
-0.69	Cc1ccc2nc(-c3ccccc3)cc(C(=O)NCC(c3ccco3)N(C)C)c2c1 (stereo unspecified)
1.3	Cc1cc(C)cc(N(CC(=O)NCc2ccc3c(c2)OCO3)C(=O)CCC(=O)Nc2ccccn2)c1
0	COc1ccc(S(=O)(=O)NC2CCCCC2)c(C)c1C
0.66	O=C(O)CC12CC3CC(C1)CC(n1cncn1)(C3)C2
-0.12	CCOC(=O)C(NC(=O)Nc1cccc(C)n1)(OCC(F)(F)F)C(F)(F)F (stereo unspecified)
-0.01	CNC(=O)CC1C(=O)N(Cc2ccccc2)C(=S)N1NC(=O)c1cccc(F)c1 (stereo unspecified)
1.2	Cc1ccc(/C=C/C(=O)NC2CCS(=O)(=O)C2)cc1 (stereo unspecified)
-2.7	Cc1cccc(CN2CCN(CC(=O)N3CCCC3)C2=O)c1
-0.08	COc1ccc2cc3cc(C(=O)NCCN4CCc5ccccc5C4)oc3nc2c1
-1.5	CC1(C)CC(=O)C2=C(C1)NC(=O)CC2c1ccc(F)cc1 (stereo unspecified)
0.63	CCCOc1ccc(C(=O)Nc2ccc(S(=O)(=O)Nc3cc(C)nc(C)n3)cc2)cc1
-0.97	Cc1ccccc1C(=O)Nc1ccnn1C1CCN(C(=O)C2CCOC2)CC1 (stereo unspecified)
2.3	Cc1ccc(Nc2c(-c3ccccc3O)nc3ncccn23)cc1
-0.61	Cc1cc2ccccc2n1CCNC(=O)COc1ccc2ccccc2c1
-4.1	O=[N+]([O-])c1cccc(Cl)c1NCCNS(=O)(=O)c1ccc(Cl)cc1
-1.7	COc1ccc(-c2nc(-c3cccc(C)c3)[nH]c(=O)c2C#N)cc1
-1.8	Cc1ccc(N2C(=O)N(CC(=O)NC(N)=O)C(=O)C2C)cc1 (stereo unspecified)
2.7	COc1ccc(N(CC(=O)NCc2cccs2)S(=O)(=O)c2c(C)n[nH]c2C)cc1
1.1	CCc1ccccc1N(CC(=O)N1CCCC1)S(C)(=O)=O
1.7	Cc1cc(C)cc(-n2nc(C)cc2N)c1
1.9	O=C(Cn1cc2c(n1)CCCC2)NCCCN1CCCC1
0.07	O=C(CCN1C(=O)C2CC=CCC2C1=O)NC1CCCCC1 (stereo unspecified)
0.12	CCOC(=O)CS(=O)(=O)c1ccccc1
2	O=C(O)CCCNC(=O)OCc1ccccc1
0.37	Cc1ccc(-c2noc(-c3ccccc3C(=O)NCC3CCCO3)n2)cc1 (stereo unspecified)
1.3	CCOC(=O)N1CCN(S(=O)(=O)N2CCCC(C(=O)NCCc3ccc(OCC)c(OCC)c3)C2)CC1 (stereo unspecified)
-1.4	CCOC(=O)c1cccc(NC2c3ccccc3C(=O)N2Cc2ccco2)c1 (stereo unspecified)
-0.8	O=C(C1CC1)N1N=C(c2ccc(F)cc2)CC1(O)C(F)(F)F (stereo unspecified)
-0.53	CCC(OC(=O)CC1Sc2ccccc2NC1=O)C(=O)NCC1CCCO1 (stereo unspecified)
2.9	COCc1cc(N2CCCCC2)nc(-c2ccccc2)n1
-1.4	CCCN1Cc2cccc(C(=O)NC(C)c3cccs3)c2C1=O (stereo unspecified)
-0.25	N/C(=N\OC(=O)COc1ccc2ccccc2c1)c1ccncc1
0.44	C[C@]12CC[C@@H]3c4ccc(O[C@@H]5O[C@H](C(=O)O)[C@@H](O)[C@H](O)[C@H]5O)cc4CC[C@H]3[C@@H]1C[C@@H](O)[C@@H]2O
-3.1	CC(C)(CO)NCC(O)COc1ccc2c(c1)CCC2 (stereo unspecified)
1.6	Cc1cccc(NC(=O)CN(CCc2ccccc2)S(C)(=O)=O)c1
0.66	CSc1ccc(-c2nnn(CC(=O)NCc3ccccc3)n2)cc1
1.4	CC(C)CN(CC(C)C)S(=O)(=O)N1CCC(C(=O)NCCc2ccc(Cl)cc2)CC1
-1.7	COC(=O)c1ccc(C(=O)OC)c(NC(=O)Nc2ccc3c(c2)OCO3)c1
0.6	Cc1ccc(CO/N=C/C2=C(Cl)c3ccccc3CC2)cc1

# The list goes on.
Kir21 inh	compound
-1.3	Cc1ccc(Cn2cc(-c3ccccc3)nn2)cc1
0.9	CS(=O)(=O)N1CCC(C(=O)Nc2ccc(Oc3ccccc3)cc2)CC1
2.7	CCOC(=O)C1=C(C)N=c2s/c(=C3\C(=O)Nc4ccccc43)c(=O)n2C1c1ccc2c(c1)OCO2 (stereo unspecified)
0.68	COc1ccc(NC(=O)CN2CCCN(S(=O)(=O)c3ccc(F)cc3)CC2)cc1
1.7	O=C(NN=C1CCCCC1)c1cc(-c2ccccc2)n[nH]1
-1.7	CC(C)CN(CC(C)C)c1ccc(/C=N/n2cnnc2)cc1[N+](=O)[O-]
0.87	CC1=C(C(=O)NC(C)c2ccc3c(c2)OCCO3)C2(CCC(C)CC2)OC1=O (stereo unspecified)
-0.1	CCn1cnc2sc(C(=O)N(Cc3ccc(N(C)C)cc3)Cc3ccco3)c(C)c2c1=O
1.2	Cc1nc(-c2ccc(S(=O)(=O)Nc3ccc(S(N)(=O)=O)cc3)cc2)co1
-0.36	Cc1cc(C)cc(NS(=O)(=O)c2cccs2)c1
2.1	CSc1ccccc1NC(=O)c1ccccc1C
-2.8	COc1cccc(NC(=O)Cn2cc(C=O)c3ccccc32)c1
-0.01	COc1ccc(S(=O)(=O)N2CCc3ccccc32)cc1C(=O)OCc1c(C)noc1C
-0.41	CCOc1cnc(-c2c(-c3c(Cl)cccc3Cl)noc2C)o1
-0.16	CSc1nc2n(n1)C(c1cc(Br)ccc1F)C(C(=O)N(C)C)=C(C)N2 (stereo unspecified)
0.65	Cn1c(CCNC(=O)c2cccs2)nnc1SCC(=O)N1CCN(c2ccccc2)CC1
0.7	CC(C)c1ccc(NC(=O)N2CCOCC2)cc1
-0.67	Cc1ccc(CSc2ncn(-c3ccccc3)n2)cc1
0.34	CCCS(=O)(=O)c1ccc(COC(=O)c2cccc(NC(=O)C(C)C)c2)cc1
2	CCOC(=O)c1ccccc1NC(=O)CSc1nc2ccccc2n1CC(=O)N1CCCC1
0.2	CCCCCn1c(N2CCOCC2)nc2c1c(=O)n(CC(N)=O)c(=O)n2C
1.6	CC(=O)Nc1cccc(C(=O)Nc2cccc3ncccc23)c1
1	O=C1CC(c2ccc(O)c(O)c2)Oc2cc(O)cc(O)c21 (stereo unspecified)
-1.4	O=C(O)/C=C/c1cccc(NC(=O)Nc2ccc([N+](=O)[O-])cc2)c1
-0.94	Cc1cc2ncn(CCC(=O)NC3CCCC3)c2cc1C
2	Cc1ccccc1C(=O)NNC(=O)c1cccc(Br)c1
-0.34	CCCCOc1nc(N)nc(-c2ccccc2)n1
-0.01	O=C(c1cc2ccccc2o1)c1cccs1
-0.72	CC1CCC/C(=N\NC(=O)COc2ccccc2Cl)C1 (stereo unspecified)
1.2	CCn1c(=O)n(CC(=O)NCC2CCCO2)c(=O)c2c3c(sc21)CCCC3 (stereo unspecified)
0.16	COC(=O)C1=C(C)N(C)C(=O)NC1c1ccc(C)cc1 (stereo unspecified)
-0.8	Cc1cc(N/N=C/c2cccc(Cl)c2)nc(NCc2ccccc2)n1
-0.22	COc1ccc([C@@H]2C[C@H]3CN(c4ccccc4)C(=O)[C@]34CCCN24)c(OC)c1OC
-0.15	COc1ccc(C(CNC(=O)Cc2ccccc2)N2CCCCC2)cc1 (stereo unspecified)
1.1	Cc1cc(Oc2ccc(-c3ccccc3)cc2)nc(N2CCOCC2)n1
1.1	CCCS(=O)(=O)N1CCCC(c2nc(-c3ccc(OC)cc3)no2)C1 (stereo unspecified)
0	Cc1ccc(C(=O)NN(CCC(=O)NC(C)(C)C)C2=NS(=O)(=O)c3ccccc32)cc1
0.03	CC12C=CC3(O1)C(C(=O)N1CCCOC13)C2C(=O)O (stereo unspecified)
1.7	C[N+]1(CC2COC3(CCCCC3)O2)CCCC1 (stereo unspecified)
1.7	Cc1cccc2cc(CN(CC3CCCO3)C(=O)c3cccnc3)c3nnnn3c12 (stereo unspecified)

# Some of the entries so far, with bars between the fields:
SMILES | Kir21 inh
CCn1c(=O)n(CC(=O)NCC2CCCO2)c(=O)c2c3c(sc21)CCCC3 (stereo unspecified) | 1.2
COC(=O)C1=C(C)N(C)C(=O)NC1c1ccc(C)cc1 (stereo unspecified) | 0.16

# Random excerpt: 6 entries already listed
Kir21 inh	compound
-0.72	CC1CCC/C(=N\NC(=O)COc2ccccc2Cl)C1 (stereo unspecified)
0.63	CCCOc1ccc(C(=O)Nc2ccc(S(=O)(=O)Nc3cc(C)nc(C)n3)cc2)cc1
-1.4	COc1ccccc1-c1nnc2sc(COc3ccc(Cl)cc3Cl)nn12
-0.69	Cc1ccc2nc(-c3ccccc3)cc(C(=O)NCC(c3ccco3)N(C)C)c2c1 (stereo unspecified)
-1	N#Cc1nc(Cc2ccccc2)oc1NCc1ccccc1
1.6	CC(=O)Nc1cccc(C(=O)Nc2cccc3ncccc23)c1

# The list continues:
Kir21 inh	compound
0.49	COc1ccccc1C(=O)c1cc2ccc(O)cc2oc1=O
2.4	C/C(CC(=O)Nc1cc(Cl)ccc1Cl)=N\NC(=O)COc1cccc(C)c1
-2.3	O=C(COc1ccccc1Br)NCCc1nc2ccccc2[nH]1
-0.36	Cc1ccc(NC(=O)CSc2ccc(-c3ccco3)nn2)cc1
-0.2	CN1C(=O)c2ccccc2N(C)C1c1ccc(F)cc1 (stereo unspecified)
-0.27	COc1ccc(NC(=O)CCC(=O)N/N=C/c2ccncc2)cc1
0.61	Cc1ccc(NCc2n[nH]c(=S)n2-c2ccccc2)c(C)c1
-0.27	COc1ccccc1CNC(=O)COC(=O)c1cnccn1
0.07	C(=N\N1CCN(C(c2ccccc2)c2ccccc2)CC1)/c1ccc2c(c1)OCO2
0.8	COc1ccc(C(=O)NCC(=O)OCc2ccc([N+](=O)[O-])cc2)cc1
1.8	O=C(CC1c2ccccc2Oc2ccccc21)NCc1ccco1
0.48	O=C(Nc1ccccc1Cl)C1CCN(Cc2cnn(-c3ccccc3)c2-n2cccc2)CC1
-0.02	COc1ccc(CCN(C)C(=S)NC(=O)c2ccc(F)cc2Cl)cc1OC
1.5	CC(=O)Oc1ccc(-c2ccc(C(=O)NCCc3ccc(S(N)(=O)=O)cc3)cc2)cc1
0.63	Cc1ccc(NC(=O)CSc2nc3c(c(=O)[nH]2)CCCC3)cc1C
0.43	CN1C(=O)C(C)(C)c2cc(S(=O)(=O)NCC(=O)NCc3ccccc3)ccc21
1.8	Cc1ccc2nc(SC(C(=O)Nc3ccc(F)cc3)c3ccccc3)[nH]c2c1 (stereo unspecified)
2.3	COc1cccc(N=C2SC(CC(=O)Nc3ccccc3)C(=O)N2Cc2ccccn2)c1 (stereo unspecified)
0.14	CN1N=C(C(=O)Nc2ccc3c(c2)CCC3)CCC1=O
0.06	CC1CN(C2=NC(=O)/C(=C3/C(=O)N(Cc4ccc(F)cc4)c4ccccc43)S2)CC(C)O1 (stereo unspecified)
0.11	COc1ccc(NC(=O)c2ccc(NC(=O)C3CC3)cc2)cc1
0.53	COc1ccc(-c2cn(Cc3ccc([N+](=O)[O-])cc3)nn2)cc1
-4.1	CCOC(=O)/C(=C\c1cn(C)c2ccccc12)[N+](=O)[O-]
